# Menin MLL FP FL: inhibitors of human menin-MLL interaction, wild-type MLL peptide. Fluorescence polarization, fluorescein-MLL peptide displacement from menin. FP activity change, % at 61.4 µM. 290,000 tested, under 10 active; inconclusive = falling polarisation curve, or a change in total fluorescence; inactive = total fluorescence flat and polarisation flat or rising; no compound was filed as active; the % refers to the polarisation; negative = inhibition;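 also: % of control where 0% means no effect; inhibitors lower the polarisation; unlabelled MLL peptide was the positive control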
# gsp ag: agonists of gsp mutant (McCune-Albright syndrome). gsp mutant cells, cAMP HTRF, 30 min; control for the full effect not named in the record. 340,000 tested, 0.13% active. Potency, µM (doses to about 76.9 µM), inactives show top-dose activation (cAMP increase), actives largely listed as activators; active = well fitted activation curve with a large enough effect; inconclusive = small, poorly fitted or top-dose-only effect, or another doubt; inactive = no such curve, though single readings can be large or run the other way; cell line not stated here;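 also: phosphodiesterase inhibitor Ro 20-1724 added with compounds to block cAMP breakdown; potency is read from the fitted curve at half-maximal effect; nearly all actives have a fitted effect of over 60% in size; about a fifth of the inactives were tested at one dose only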
#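 Cells stably selected in G418 were plated at 2000/well, grown 16-24 hr, then given compounds in DMSO with the PDE inhibitor […] (300 uM solution added) for 30 min at 37C; cAMP was read by HTRF.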
# ClpP mod: qHTS Assay for Activators of ClpP; ATP-dependent Clp protease proteolytic subunit (Bacillus subtilis (strain 168)), P80244; purified B. subtilis ClpP, FRET peptide cleavage, 20 min; Potency, µM (highest dose often 57.5 µM), without a hit: at the top dose activity change, negative = active; 340,000 tested, 1.9% active; active = well fitted falling curve with a large enough effect; inconclusive = small, poorly fitted or top-dose-only effect; inactive = no such curve, though single readings can be large or run the other way; also: potency is read from the fitted curve at half-maximal effect; the source files actives as falling curves though it sought activators and does not explain the sign; nearly all actives have a fitted effect of over 65% in size; many hits overshoot -100%
# Target sequence (P80244 whole entry, looked up): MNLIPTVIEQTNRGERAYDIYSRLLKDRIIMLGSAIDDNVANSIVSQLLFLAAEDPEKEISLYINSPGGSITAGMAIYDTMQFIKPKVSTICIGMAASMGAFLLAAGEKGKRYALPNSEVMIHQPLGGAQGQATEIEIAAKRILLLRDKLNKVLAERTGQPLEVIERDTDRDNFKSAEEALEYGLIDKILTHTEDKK
#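 ClpP 10 microg/mL final, pH 8 Tris/KCl buffer with BSA, glycerol, Tween-20; compound pinned in; FRET-FV substrate; RT 20 min; Ex320/Em430; ΔFRET vs ADEP 5.8 microM, DMSO, no enzyme.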
# TRPV1 potentiator: enhances activation of the human vanilloid receptor TRPV1; TRPV1-expressing cells, Fluo-8 calcium influx, capsaicin EC20 potentiation; host cell line not named in the record; control for the full effect not named in the record; potentiation, % at 8.33 µM; 320,000 tested, 0.02% active; AID 540277; active means potentiation above 80%; inconclusive means 30% to 80%; inactive means below 30%; also: 0% is about no effect
#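 TRPV1-expressing cells were cultured overnight at 35.5C and loaded with Fluo-8 calcium dye for 40 to 90 min at room temperature. After a 10 s baseline, compound was added and calcium influx was read kinetically for 3 min (ex 480/em 520 nm).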
# gsp antagonist: antagonists of gsp mutant (McCune-Albright syndrome); gsp-mutant cells, cAMP HTRF, 30 min; control for the full effect not named in the record; Potency, µM (top dose mostly 76.9 µM), without a hit: at the top dose activity change, negative = inhibition, hits mostly inhibitors; 340,000 tested, 0.4% active; active = falling curve of any shape with a large fitted effect; inconclusive = falling curve, mostly with a smaller effect; inactive = flat or rising curve; cell line not stated here;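 also: intracellular cAMP measured with PDE inhibitor Ro 20-1724 present during compound exposure; potency is read from the fitted curve at half-maximal effect; % is scaled to controls: 0 for no effect and ±100 for the full control effect; nearly all actives have a fitted effect of over 65% in size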
#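 HTRF cAMP measurement after 30 min RT detection following 30 min, 37C compound treatment alongside […] (added as 300 uM solution) in G418-selected cells seeded at 2000/well and grown 16–24 h.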
# Sfp PPTase inh: Sfp phosphopantetheinyl transferase inhibition. AID 1490. Potency, µM, for inactives: max response, negative = inhibition, usual class: inhibitors. 310,000 tested, 3.5% active. Biochemical Sfp PPTase activity, qHTS. Q9F4F7; active = well fitted inhibition curve with a large enough effect; inconclusive = small, poorly fitted or top-dose-only effect, or another doubt; inactive = no such curve, though single readings can be large or run the other way;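 also: the enzyme is Sfp with the accession as filed and its product quenches rhodamine fluorescence; potency is read from the fitted curve at half-maximal effect; 0% = enzyme reaction without inhibitor and -100% = no enzyme wells; top concentration of the series not given in the record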
#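 Compounds were incubated with enzyme (final 15 nM) for 15 min at room temperature before substrate addition started the reaction. Fluorescence at 525 nm excitation, 598 nm emission was recorded immediately and after 30 minutes.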
# TRPML1 blocker: blocks the human TRPML1 channel; TRPML1-inducible cells, Ca2+ dye fluorescence, FDSS; hits give low values; inhibition of EC80 agonist-evoked calcium signal; activity change, negative = inhibition, % (test concentration not listed); AID 624415; Q9GZU1; 390,000 tested, 0.02% active; in the data active means activity change below about -50%; inconclusive means about -30% to -50%; inactive means above about -30%;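 also: stimulus is agonist 54-4 at its EC80 concentration; % is scaled to controls: 0 for no effect and ±100 for the full control effect; compound concentration not given in the record; the text of the record puts the active cut at -80%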
# Target sequence (Q9GZU1 whole entry, looked up): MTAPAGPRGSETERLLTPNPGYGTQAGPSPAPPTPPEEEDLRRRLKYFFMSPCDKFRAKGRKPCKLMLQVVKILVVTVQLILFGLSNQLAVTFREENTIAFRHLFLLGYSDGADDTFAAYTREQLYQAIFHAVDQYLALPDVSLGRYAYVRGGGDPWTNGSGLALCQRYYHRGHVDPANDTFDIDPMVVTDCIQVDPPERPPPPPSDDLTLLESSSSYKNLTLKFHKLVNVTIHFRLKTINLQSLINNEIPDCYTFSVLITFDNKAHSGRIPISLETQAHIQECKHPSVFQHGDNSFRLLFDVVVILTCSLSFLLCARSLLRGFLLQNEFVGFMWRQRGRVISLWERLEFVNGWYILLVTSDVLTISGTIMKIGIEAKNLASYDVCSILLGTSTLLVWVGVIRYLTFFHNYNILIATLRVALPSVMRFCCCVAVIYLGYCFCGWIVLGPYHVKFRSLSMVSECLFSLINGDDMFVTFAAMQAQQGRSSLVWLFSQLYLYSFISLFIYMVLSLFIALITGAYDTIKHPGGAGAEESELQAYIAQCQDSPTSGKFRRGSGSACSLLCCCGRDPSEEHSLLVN
#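 Tet-induced TRPML1-DL cells loaded with Ca8 no-wash calcium dye were read kinetically on FDSS. Compound addition was followed by EC80 agonist 54-4 (4 uM final); inhibition was read over 110 s.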
# * marks the source's active call; other numbers are inactive results; u = inconclusive; x = not tested or not shown; & = joins results of further samples; [ ] = dose if it differs, or a comment.
SMILES,Menin MLL FP FL,gsp ag,ClpP mod,TRPV1 potentiator,gsp antagonist,Sfp PPTase inh,TRPML1 blocker
O=C(NCCC1=CCCCC1)C(=O)NCC(c1ccco1)N1CCN(c2ccccc2F)CC1 (configuration not stated),0.9,-19.4%,0.6%,7.8,0.9%,16.6%,6.1
COc1ccc(-c2csc(NC(=S)NC(=O)c3cccs3)n2)cc1Br,-0.1,11.6%[15.4 µM],-2.0%,-5.2,0.6%,-6.0%,19.9
O=C(CC1Oc2ccccc2NC1=O)NCc1ccccc1 (configuration not stated),1.8,-18.3%,-0.1%,x,5.1%,7.1%,13.0
COc1cccc(NC(=O)Nc2ccc3nsnc3c2)c1,-1.4,-40.1%[inhibitor],-2.1%,-3.8,u,-8.4%,8.5
CN(Cc1ccccc1)S(=O)(=O)c1ccc(Cl)c(C(=O)N2CCOCC2)c1,x,-36.1%[inhibitor],0.8%,x,x,x,-2.0
COc1ccccc1CCNC(=O)c1ccc(C)o1,-1.2,17.0%,0.7%,-16.4,8.7%,12.1%,2.7
Cc1sc2ncnc(NCC(c3ccco3)N3CCCC3)c2c1C (configuration not stated),2.8,21.1%,-0.8%,-9.4,-2.5%,-6.9%,-6.0
O=C(O)CCNC(=O)/C(=C\c1ccco1)NC(=O)c1ccco1,-11.3,21.9%,-0.4%,0.1,9.9%,79.4µM*,x
COc1cccc(-c2ccc(SCc3ccccn3)nn2)c1,-10.5,-24.3%[15.4 µM],-1.7%,-13.0,1.8%,5.9%,-3.6
C=CCNC1=C(Cl)C(=O)c2ccccc2C1=O,5.2,u,-1.8%,7.4,12.6%,-9.9%,-3.3
CC(C)(O)CN(C(=O)c1ccccc1)C1CCCCC1,x,25.5%,1.0%,x,9.6%,x,-0.9
CC1(C)Cc2c(sc3ncnc(N)c23)CO1,0.6,0.9%,-9.9%,u,17.0%,16.2%,16.3
O=C(CSc1n[nH]c(C2CCCC2)n1)NC1CCCC1,-1.1,-8.9%,-1.8%,-12.6,3.0%,9.3%,-0.6
CN1CCN(C(=O)/C(=C/c2cccs2)NC(=O)c2ccco2)CC1,1.1,u,x,-1.9,10.4%,12.8%,2.4
C=C1C(=O)OC2C1C(OC(=O)C(C)=CC)CC(=C)C1C(O)C3OC3(C)C21O (configuration not stated),x,1.3%,-7.9%,x,-1.5%,x,-9.1
CC(=O)Nc1ccc(S(=O)(=O)NNC(=O)CCc2ccccc2)cc1,-1.1,-14.8%,x,-2.8,6.9%,14.5%,-8.5
Cc1oc(-c2cccc(Cl)c2)nc1CN1CCC(C(=O)NCC2CCCO2)CC1 (configuration not stated),0.5,-20.8%,0.4%,-8.1,7.8%,9.8%,-11.3
Cc1ccc(C(=O)NCCCc2ccccc2)c(C)c1,-5.9,8.8%[15.4 µM],x,-2.9,-2.6%,6.8%,-23.7
COC(=O)c1ccc(NC(=O)CN2CCN(c3ccccc3)CC2)cc1,-0.4,15.6%,0.5%,2.0,-2.6%,16.9%,5.2
CCCC1(C(=O)OCC)NC(c2cc(OC)c(OC)c(OC)c2)C2C(=O)N(CC)C(=O)C21 (configuration not stated),-1.8,-45.0%[inhibitor],3.7%,-4.1,-5.7%,22.9%,2.6
COc1ccc(CNC(=O)CN(c2ccc(C(C)=O)cc2)S(=O)(=O)c2ccc(C)cc2)cc1OC,x,-13.0%[15.4 µM],1.3%,x,6.0%,x,-3.5
O=C(c1cccc(N2C(=O)c3ccccc3C2=O)c1)N1CCCCCC1,0.4,5.9%,1.6%,0.2,-3.2%,-16.9%,-9.8
COc1ccc(OCC(=O)NCCS(=O)(=O)N2CCN(c3ccc(F)cc3)CC2)cc1,-2.4,15.9%,-0.7%,3.7,5.1%,18.5%,0.2
COc1ccc(Nc2ccc3c(c2)=NC2(CCCCC2)[N+]=3[O-])cc1,4.6,12.7%[15.4 µM],-4.6%,-10.0,-22.6%,-19.7%,22.2
CC(C)N(Cc1cnn(C)c1)Cc1nc(-c2ccc(Cl)cc2)no1,-1.7,-7.8%,0.7%,-6.1,1.0%,15.6%,34.1
Cc1cc(C)cc(NC(N)=S)c1,3.9,-0.1%,-11.8%,-5.0,13.3%,15.4%,-19.6
Cc1cccnc1NC(=O)c1ccccc1NC(=O)C(C)(C)C,0.7,-13.5%,1.6%,-10.3,23.8%,5.6%,-0.2
N/C(=N\OC(=O)c1cc(-c2ccccc2)nc2ccccc12)c1ccc(Cl)cc1,2.5,-1.6%,18.3%,16.5,8.0%,14.6%,9.9
COc1ccc(S(=O)(=O)Nc2ccc(-n3cnnn3)cc2)cc1Br,x,-3.3%[15.4 µM],x,12.2,-4.0%,x,-3.3
CC(C)(C)SCCNC(=O)c1ccccc1,1.5,u,-0.7%,-12.0,8.3%,23.3%,36.5
CCOC(=O)c1csc(NC(=O)CC2CCCC2)n1,3.3,3.6%[15.4 µM],-1.0%,12.1,8.6%,15.0%,7.3
O=C(NC1CC1)c1cccc(NC(=O)c2cnn(-c3ccccc3)n2)c1,x,13.8%,2.1%,x,-14.0%,x,11.0
CCN1CCN(C(=S)Nc2ccc3nc4n(c(=O)c3c2)CCCCC4)CC1,3.2,23.2%,-7.7%,-8.3,14.0%,12.9%,36.1
O=C(O)CC(NC(=O)C1CCCCC1)c1ccc(OC2CCCC2)cc1 (configuration not stated),0.2,6.8%[15.4 µM],x,u,-6.5%,-19.5%,19.9
Cn1nccc1C(=O)OCC(=O)Nc1ccc(S(N)(=O)=O)cc1,-7.6,-5.4%[15.4 µM],x,0.0,15.4%,2.5%,5.2
COc1ccccc1C/C(N)=N/OC(=O)COc1ccc(C)cc1,3.2,5.0%,-1.1%,2.2,-3.3%,3.6%,42.6
NC(=O)c1cc(S(=O)(=O)N2CCCCC2)cs1,-1.0,-5.1%,-0.3%&-1.3%,-9.3,4.9%,19.0%,0.8&26.6
CC1(C)N([O-])c2cc([N+](=O)[O-])ccc2[N+]1=O,-1.6,16.3%,2.2%,-11.4,-2.7%,1.58µM*,-5.7
CCCCCCCNc1cccc(C)c1,2.9,-0.2%[15.4 µM],0.5%,-7.0,14.5%,2.4%,-8.8
O=C(CCNC(=O)c1ccc(Br)cc1)NCCCN1CCCC1=O,x,13.4%,0.6%,u,7.3%,x,2.7
O=C(Nc1ccc2c(c1)OCO2)N1CCN(c2ccccc2)CC1,2.7,1.6%,0.1%,-17.3,5.5%,13.3%,36.9
CCCn1c(SCc2cc(=O)[nH]c3ccccc23)nc2c1c(=O)n(C)c(=O)n2C,1.1,13.5%,-0.9%,-10.4,12.1%,9.7%,-1.2
O=c1[nH]c(=O)n(Cc2ccco2)c2c1C(C(F)(F)F)(C(F)(F)F)N=C(C1CCCCC1)N2,3.2,9.3%,-12.5%,11.2,-0.8%,18.3%,17.7
COc1ccc(S(=O)(=O)N2CCCCC2)cc1NC(=O)c1ccc2c(c1)OCO2,-0.6,-10.8%,-3.4%,u,u,-3.0%,35.1
O=C(Nc1ccon1)c1cccc(S(=O)(=O)N2CCCCCC2)c1,0.0,-29.9%,-1.1%,2.5,10.6%,9.9%,5.6
CCCS(=O)(=O)N1CCN(CC2CC=CCC2)CC1 (configuration not stated),0.3,-22.4%,-1.0%,5.4,7.9%,-23.3%,-3.5
CN(CC(=O)Nc1ccccn1)S(=O)(=O)c1ccc(Cl)cc1,2.6,u,-4.4%,u,-10.5%,6.3%,-13.1
CCc1ccc2[nH]c(C(=O)Nc3ccc4c(c3)OCO4)cc2c1,0.9,u,x,-13.4,12.3%,-2.3%,4.8
COc1ccc(CCC(C)NCc2ccc(F)cc2)cc1 (configuration not stated),-0.8,0.7%,1.6%,-20.1,7.5%,5.0%,24.5
CCN(CCN(C)C)C(=O)C1CCN(S(=O)(=O)c2c(C)noc2/C=C/c2ccccc2F)CC1,x,9.6%,2.1%&-5.3%,-2.3,12.6%,-6.4%,-5.8&31.3
CC(C)(C)C(=O)Nc1ccc(-c2cn3ccsc3n2)cc1,18.8,-9.7%,0.4%,12.1,-11.6%,-10.1%,5.8
CCN(CC)S(=O)(=O)c1ccc(N/N=C/c2ccc(O)cc2)nc1,-6.8,5.7%,x,-1.1,-6.2%,-2.9%,-8.2
CC(C(=O)Nc1ccccc1Br)c1ccc([N+](=O)[O-])cc1 (configuration not stated),2.6,5.4%,-1.6%,-21.7,-3.3%,2.0%,-8.4
O=c1[nH]c(/C=C/c2ccc(Br)cc2)nc2ccccc12,5.4,18.5%,13.5%,3.2,-1.2%,7.9%,5.2
Cc1ccsc1/C=N/NC(=O)c1ccccn1,3.0,-9.4%,-9.4%,15.2,3.0%,56.2µM*,-15.9
CCn1c(C)[n+](Cc2ccccc2)c2ccc(C(=O)OC)cc21,0.1,-5.6%[15.4 µM],x,u,6.4%,-8.2%,-13.0
Cn1c(N)c(C(=O)COC(=O)c2cc3ccccc3cc2O)c(=O)n(C)c1=O,x,5.6%,u,x,-12.9%,x,8.2
CCc1cccc(CC)c1NC(=S)NCc1nc2ccccc2[nH]1,1.3,11.1%[15.4 µM],x,3.8,-16.2%,10.6%,11.7
Cc1cc(Br)c(OCc2ccc(C(=O)N/N=C3\CC(=O)CC(C)(C)C3)cc2)c(Br)c1,10.4,33.0%,-0.5%,3.2,-23.8%,6.3%,27.7
CN(C)c1c([N+](=O)[O-])cc2[nH]c(=O)[nH]c2c1[N+](=O)[O-],1.8,7.6%,0.9%,-12.7,10.9%,4.8%,-5.0
COCCCN(Cc1cc(OC)c(OC)c(OC)c1)C(=S)Nc1cccc(SC)c1,x,-13.4%,0.1%,x,x,x,-8.1
COc1ccc(C(CNC(=O)c2cccc(S(=O)(=O)Nc3ccc(Br)cc3)c2)N(C)C)cc1 (configuration not stated),x,-46.6%[inhibitor],1.8%,x,-7.3%,x,-11.1

# Entries of single compounds, looked up by structure. Values in the order: Menin MLL FP FL	gsp ag	ClpP mod	TRPV1 potentiator	gsp antagonist	Sfp PPTase inh	TRPML1 blocker
# `CN(CC(=O)Nc1ccccn1)S(=O)(=O)c1ccc(Cl)cc1` is listed as 2.6	u	-4.4%	u	-10.5%	6.3%	-13.1
# `O=c1[nH]c(/C=C/c2ccc(Br)cc2)nc2ccccc12` is listed as 5.4	18.5%	13.5%	3.2	-1.2%	7.9%	5.2
